High-throughput results from PubChem.
Rce1 inh: inhibitors of yeast Ras-converting enzyme; 0.27% of 290,000 active; calls only; yeast membranes, quenched prenylated peptide cleavage fluorescence;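 active = fall in fluorescence gain of 50% or more versus controls, with final raw signal at or below 3038400; inconclusive = same 50% fall but final raw signal above 3038400; inactive = fall in fluorescence gain under 50%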;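 note: plate controls were neutral control wells for no effect and wells lacking membranes for full effect; tested at 10 µM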
Target sequence (Q03530 whole entry, looked up): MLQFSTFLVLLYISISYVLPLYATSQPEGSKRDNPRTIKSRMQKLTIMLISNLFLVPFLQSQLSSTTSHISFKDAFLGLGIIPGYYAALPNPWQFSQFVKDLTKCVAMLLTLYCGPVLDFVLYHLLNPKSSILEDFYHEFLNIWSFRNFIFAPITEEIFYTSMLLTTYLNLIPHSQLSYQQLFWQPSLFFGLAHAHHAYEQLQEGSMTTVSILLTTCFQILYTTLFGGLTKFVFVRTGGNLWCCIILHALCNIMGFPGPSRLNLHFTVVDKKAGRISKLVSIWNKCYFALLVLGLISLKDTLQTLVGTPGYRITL
CSC inhib: cancer stem cell inhibition | 1.1% of 300,000 active | cancer stem cell-like cells viability, luminescence | inhibition, % at 7.5 µM | AID 2717;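 active = mean at 75% or more and at least half the replicates too; inconclusive = mean and replicates disagree; tested in HMLE shEcad cells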;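 note: 0% = median of negative and 100% = median of positive control wells; the first replicate is given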
PABP polyA inh: blocks human PABP binding to poly(A) RNA. P11940. inhibition, % at 35 µM. fluorescence polarization. 1% of 290,000 active;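 active = 50% or more with normal probe brightness, or confirmed in later tests; inconclusive = above 50% with abnormal brightness, or retests that disagree; inactive = below 50% or failed in later tests; about a fifth of its hits are not listed in these tables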;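 note: calls also rest on retests at 20 µM and on dose response follow-up; controls were probe without protein and protein plus probe with vehicle; some compounds called inactive have numbers as strong as hits; many hits fall short of the cut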
Target sequence (P11940 whole entry, looked up): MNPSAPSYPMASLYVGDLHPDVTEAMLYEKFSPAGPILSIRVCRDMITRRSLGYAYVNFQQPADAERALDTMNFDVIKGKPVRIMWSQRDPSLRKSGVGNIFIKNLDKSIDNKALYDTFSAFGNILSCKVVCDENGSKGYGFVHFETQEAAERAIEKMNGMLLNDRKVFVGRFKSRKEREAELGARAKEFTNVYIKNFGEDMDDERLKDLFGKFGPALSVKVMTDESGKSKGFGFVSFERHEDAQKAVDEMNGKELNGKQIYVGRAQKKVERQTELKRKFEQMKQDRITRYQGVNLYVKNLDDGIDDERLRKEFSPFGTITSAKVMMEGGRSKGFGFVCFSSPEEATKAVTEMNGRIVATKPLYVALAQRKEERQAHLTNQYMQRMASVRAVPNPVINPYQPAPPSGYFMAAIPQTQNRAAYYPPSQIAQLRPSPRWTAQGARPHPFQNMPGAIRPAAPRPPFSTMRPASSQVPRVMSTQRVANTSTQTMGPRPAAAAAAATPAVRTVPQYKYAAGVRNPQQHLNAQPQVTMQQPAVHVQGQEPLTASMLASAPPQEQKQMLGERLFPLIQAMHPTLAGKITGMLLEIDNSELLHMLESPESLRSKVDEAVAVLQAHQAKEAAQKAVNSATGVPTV
eIF4H FP inh: inhibitors of RNA binding by human eIF4H. eIF4H fluorescence polarization binding assay. 0.94% of 290,000 active. AID 2012. inhibition, % at 35 µM. Q15056;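 active = 50% or more with normal probe brightness, or confirmed in later tests; inconclusive = above 50% with abnormal brightness, or retests that disagree; inactive = below 50% or failed in later tests; about a fifth of its hits are not listed in these tables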;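 note: calls also rest on retests at 20 µM and on dose response follow-up; 0% = protein and probe with vehicle and 100% = probe without protein; strong numbers were not always called active; many hits fall short of the cut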
Env fusion inh: blocks HIV Env-driven cell-cell fusion. inhibition, % at 12.3 µM. HeLa-JRFL Env/CEM21 cell fusion, luciferase. 1.1% of 360,000 active;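 active = mean replicate inhibition score of at least 50 and every replicate individually at or above 50; inconclusive = only one of the two criteria met; inactive = mean below 50 and not all replicates reaching 50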;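 note: 0% = plate neutral controls and 100% = maraviroc near 300 nM; one replicate is shown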
MT1-MMP act inh: inhibitors of human MT1-MMP activation. 0.061% of 360,000 active. HT1080 RFP-PRO-GFP cells, GFP/RFP ratio fluorescence, overnight; percent of plate control window, DMSO zero. AID 651647. GFP/RFP ratio change, % at 20 µM. P50281;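 active = GFP/RFP ratio change of at least 30% with cell ATP level not reduced by more than half and red fluorescence within 50% of control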; note: strong numbers were not always called active
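Test system: HT1080 cells expressing an RFP-PRO-GFP fluorescent reporter construct / Compound dosing: single-point 20 µM compound, 1% DMSO / Schedule: cells overnight before dosing, compound overnight, 37 °C, 5% CO2 / Evaluation: GFP/RFP fluorescence ratio / Control set: DMSO and RFP-L50D-GFP cell wells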
UUG fidelity: modulators of start codon recognition fidelity in yeast; S. cerevisiae UUG-firefly luciferase reporter, luminescence/redox ratio; activity score, % at 18.7 µM; 0.13% of 350,000 active; AID 602363;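 active = replicate mean at a twofold rise or more, about +100% in these data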;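 note: firefly luciferase made from a UUG start codon reports start codon fidelity; reporter light over untreated wells divided by growth signal over untreated wells; some hits fall short of that in this replicate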
eIF4H FP inh retest: also measured in eIF4H FP inh; calls as there; inhibition, %; compound at 20 µM; confirmation average;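 mean of two retest wells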
PABP polyA inh retest: recorded beside PABP polyA inh, whose call it bears; inhibition, %; compound at 20 µM; confirmation repeats;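 mean of two retest wells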
MT1-MMP act inh RFP: recorded beside MT1-MMP act inh, whose call it bears; RFP signal change, %; measured here: RFP expression control read;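 0 = vehicle wells; hits needed this value within 50% of zero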
* marks the source's active call; other numbers are inactive results; i = inactive; ? = inconclusive; . = no result given; & = joins results of further samples; [ ] = remark or other dose. This is a subset. The share of hits here may be higher or lower than overall.

SMILES | Rce1 inh | CSC inhib | PABP polyA inh | eIF4H FP inh | Env fusion inh | MT1-MMP act inh | MT1-MMP act inh RFP | UUG fidelity | others
CCCOC1CCCN(C(=O)CCc2nnc(-c3ccc4c(c3)OCO4)o2)C1 (stereo not drawn) | . | 20 | -7 | 6 | -27 | -4 | -3 | -14
CCOC(=O)c1ccc(NC(=O)c2nc[nH]c2C(=O)NCc2ccccc2)cc1 | i | 18 | -4 | 1 | -40 | 6 | -8 | -1
COc1ccc(C2SCC(C(=O)NCc3ccc(F)cc3)N2C(C)=O)cc1 (stereo not drawn) | i | -2 | 1 | 6 | -18 | -1 | 1 | -1
O=C(CSc1ccccn1)Nc1ccc(Br)cn1 | i | 1 | 10 | -7 | . | 0 | 1 | -20
CC(C)(CNC(=O)COc1ccccc1Cc1ccccc1)N1CCOCC1 | i | . | -11 | 0 | 14 | -3 | -1 | .
CCCn1c(=O)[nH]c(=O)c2c1nc(-c1ccccc1OC(F)F)n2CCOC | i | -1 | 5 | 3 | -43 | 0 | 3 | -22
O=C(O)CC1SC(=Nc2cccc(O)c2)NC1=O (stereo not drawn) | i | -16 | 11 | -1 | -21 | 14 | 2 | -17
O=C1c2ccccc2-c2nc3ncnn3c(-c3ccccc3Cl)c21 | i | -9 | -3 | 0 | -3 | -3 | 0 | -7
CC(C)N(Cc1cc2ccccc2[nH]c1=O)C(=O)C1CCCCC1 | i | 10 | -5 | -11 | . | 0 | -3 | .
COc1ccccc1COC(=O)N/C=C/c1ccco1 | i | 3 | -8 | 18 | 8 | -6 | 5 | .
O=C1C=CC(O)(c2cc(=O)c3c(O)cc(O)cc3o2)C=C1 | i | 16 | -7 | 2 | -255 | -5 | -30 | -13
CCOC(=O)C1=C(CC)Nc2ccccc2N=C1NC(=O)c1cc(S(=O)(=O)N2CCOCC2)ccc1C | . | -9 | . | . | -39 | -7 | 1 | -14
C[C@H](CO)N1C[C@H](C)[C@@H](CN(C)S(=O)(=O)c2cn(C)cn2)Oc2ccc(NC(=O)C3CCCCC3)cc2C1=O | . | . | . | . | -4[16.7 µM] | 3 | 5 | 12&-32
CCOc1ccc2c(C)c(C)c(=O)oc2c1OCC | i | -4 | 2 | -8 | -13 | 5 | -2 | -9
Cc1onc(-c2ccccc2)c1C(=O)OCC(=O)Nc1ccc(OC(F)(F)F)cc1 | . | . | . | . | 11 | -1 | -4 | 2

The list goes on; the last 4 above are carried over.
SMILES | Rce1 inh | CSC inhib | PABP polyA inh | eIF4H FP inh | Env fusion inh | MT1-MMP act inh | MT1-MMP act inh RFP | UUG fidelity | others
CCOC(=O)C1=C(CC)Nc2ccccc2N=C1NC(=O)c1cc(S(=O)(=O)N2CCOCC2)ccc1C | . | -9 | . | . | -39 | -7 | 1 | -14
C[C@H](CO)N1C[C@H](C)[C@@H](CN(C)S(=O)(=O)c2cn(C)cn2)Oc2ccc(NC(=O)C3CCCCC3)cc2C1=O | . | . | . | . | -4[16.7 µM] | 3 | 5 | 12&-32
CCOc1ccc2c(C)c(C)c(=O)oc2c1OCC | i | -4 | 2 | -8 | -13 | 5 | -2 | -9
Cc1onc(-c2ccccc2)c1C(=O)OCC(=O)Nc1ccc(OC(F)(F)F)cc1 | . | . | . | . | 11 | -1 | -4 | 2
O=C(Cn1cc2c(n1)CCCCC2)NCCN1CCOCC1 | i | -23 | -3 | 2 | -8 | -1 | 6 | -10
CN(C)S(=O)(=O)c1ccc(Cl)c(NC(=O)CSc2nc3c(cc2C#N)C(=O)CCC3)c1 | i | 8 | -5 | 5 | ? | 2 | -6 | -14
CCOc1ccc(N(Cc2cc3ccc(C)cc3[nH]c2=O)S(=O)(=O)c2ccccc2)cc1 | i | -14 | 3 | 5 | 5 | 0 | -8 | 1
Cc1ccc(C)c(N(CC(=O)NCc2ccco2)C(=O)CCC(=O)Nc2nccs2)c1 | . | -9 | 3 | -2 | 7 | -3 | 0 | -3
CCOC(=O)COc1cc2c(C(=O)OCC)c(C)oc2cc1Br | i | -5 | -2 | -4 | 24 | 3 | 4 | -22
COc1ccc(-c2cc(C(=O)OCC(=O)N(C)C)c3ccccc3n2)cc1 | i | . | -3 | -5 | -85 | -2 | -2 | -6
N#Cc1nc(-c2ccc(OCc3ccccc3)cc2)oc1N1CCOCC1 | i | -6 | -15 | -3 | 25 | -2 | -1 | -11
Cc1nn(C)c(Cl)c1/C=N/OC(=O)c1ccc(F)cc1 | i | 7 | 6 | 0 | 15 | 1 | 3 | .
CCCc1cnc(N2CCN(C(=O)c3ccc(OC)cc3)CC2)nc1 | i | 5 | 2 | -2 | . | 2 | -9 | -5
O=C1CN(C(=O)COc2cccc(F)c2)c2ccccc2N1 | i | . | 0 | 7 | 4 | . | . | .
CCC(C)(C(=O)NC1CCCCC1)N(Cc1cccs1)C(=O)c1ccccn1 (stereo not drawn) | i | 4 | 14 | -11 | -5 | -2 | 5 | .
CCOc1ccc(Nc2nc(N3CCOCC3)nc(N3CCOCC3)n2)cc1 | i | -2 | 5 | 1 | 13 | 1 | -1 | -2
COc1ccc(Oc2ccc(NC(=O)c3ccccc3C)cc2)cc1 | i | . | -4 | -8 | -4 | -1 | 0 | .
CC(C)C[C@H](NC(=O)Nc1cccc(Cl)c1)C(=O)O | i | -3 | 6 | -7 | . | 6 | 4 | -21
CC(C)COC(=O)NCCCOC(=O)Nc1ccccc1 | i | . | -3 | -5 | . | 3 | 3 | 0
COc1ccc(NC(=O)c2cc(C(C)C)on2)cc1OC | i | -2 | -3 | 0 | -48 | 7 | 0 | -13
COc1ccc(OC)c(-c2csc(NC(=O)Cn3[nH]c(=O)c4ccccc4c3=O)n2)c1 | i | 13 | -1 | -17 | -23 | -9 | -8 | -13
COCCCN(CC(=O)NCc1ccccc1)S(=O)(=O)c1ccc(C)cc1 | i | -19 | 1 | 1 | 5 | -2 | 1 | -13
O=C(c1coc(=O)c(Br)c1)N1CCOCC1 | i | . | -6 | 72 | . | 3 | 3 | . | eIF4H FP inh retest=-6;PABP polyA inh retest=8
Cc1cccc(C)c1NC(=O)CN(C)C(=O)c1ccc(OCc2ccccc2)cc1 | . | . | . | . | 17 | 7 | -1 | 11
COCCn1c(SCC(=O)N2CCOCC2)nnc1-c1ccco1 | i | -12 | -3 | 87 | -66 | 1 | 2 | -8 | eIF4H FP inh retest=-3;PABP polyA inh retest=4
Brc1ccsc1-c1csc(-c2ccncc2)n1 | i | 8 | -2 | 0 | -26 | -2 | -1 | -10
O=C(COC(=O)C1CC2C=CC1C2)NCc1ccccc1Cl (stereo not drawn) | i | -8 | -5 | -3 | 22 | 1 | 4 | -1
COc1cccc(-c2cc3nc(NCCCN(C)C)n(C)c(=O)c3s2)c1 | . | . | . | . | -11 | 6 | 4 | 10
C=CCSc1nc(N)c(C(=O)Nc2ccccc2C)cc1C(N)=O | i | -8 | -7 | -9 | . | 2 | 0 | -11
CC(=O)Nc1ccc(NC(=O)C(C)OC(=O)CCc2nc3ccccc3s2)cc1 (stereo not drawn) | i | . | 0 | -6 | -15 | 8 | 5 | .
Cc1ccc(C(=O)Nc2ccccc2N2CCCCC2)o1 | i | . | -10 | -9 | 20 | -2 | -8 | 8
CCOC(=O)c1cc(Sc2ccccc2N)cc(C(=O)OCC)n1 | i | 2 | -3 | -8 | 17 | -1 | 2 | .
CSc1ccc(CN(C)C(C)C(=O)NCC2CCCCC2)cc1 (stereo not drawn) | i | 0 | -5 | -8 | -1 | -1 | -1 | -12
Cc1ccc(CNC(=O)Nc2ccccc2)n1C | i | -12 | 5 | 10 | 11 | 1 | 4 | 0
COc1ccc(N2C(=O)c3ccccc3NC2c2ccc(NC(C)=O)cc2)c(OC)c1 (stereo not drawn) | i | -21 | 6 | 14 | -5 | -2 | 2 | -13
CC(C)S(=O)(=O)c1cnc(-c2cccnc2)nc1N | i | -2 | 7 | 17 | -4 | 2 | 8 | .
Cc1cc(C)n2nc(C(=O)NC(C)(C)C)nc2n1 | i | 11 | -2 | 0 | . | -5 | 0 | -12
CC1(C)Cc2cccc(OCC(=O)N3CCN(c4cccc(C(F)(F)F)c4)CC3)c2O1 | i | 3 | . | . | 13 | 5 | 0 | -15
COc1ccc(S(=O)(=O)N2CCCCC2)cc1NS(=O)(=O)c1cc(Cl)ccc1Cl | i | -11 | 1 | -5 | . | 3 | 1 | -11
COc1ccc(S(=O)(=O)n2nc(OC(C)=O)cc2N)cc1 | i | -11 | -1 | -3 | -7 | 2 | 2 | -17
CCCCN1C=C(C(=O)OC)C(c2ccccc2C(F)(F)F)C(C(=O)OC)=C1 | i | 11 | -8 | -7 | -41 | 5 | 3 | 2
CC1CCN(Cc2nc(-c3ccc(Cl)cc3)no2)CC1 | i | 3 | 4 | -6 | 0 | 4 | -2 | .
Cc1ccc(CN(C)C(=O)c2ccccc2Sc2ccccc2C#N)cc1 | i | 6 | 11 | 2 | 26 | -1 | -2 | 14
COc1ccccc1-c1c(C)nn2c(N3CCN(c4ccccc4OC)CC3)cc(C)nc12 | i | -2 | -1 | -14 | 10 | -3 | -11 | 4
CC(=O)N/C(=C\c1ccccc1)C(=O)OCCCOC(=O)/C(=C/c1ccccc1)NC(C)=O | i | -5 | -8 | 7 | 23 | 5 | -3 | -8
Nc1nc(CN2CCCCCC2)nc(Nc2ccc(F)cc2)n1 | i | 3 | -6 | 4 | -14 | -2 | 0 | -32
CNc1nc(C)c(C(=O)OCC(=O)OC)s1 | i | 1 | -15 | 1 | -48 | 1 | 3 | -17
COc1ccc(/[N+]([O-])=C/c2ccco2)cc1 | . | 6 | . | . | -241 | -1 | 2 | -36
O=c1oc2ccccc2cc1-c1ccc(O)cc1O | i | -1 | 6 | 0 | -23 | 5 | -6 | .
O=C(O)C(=O)/C(=C\c1cccc(Cl)c1)c1ccc2ccccc2n1 | i | 5 | -4 | -7 | -48 | -8 | 2 | -3
COc1ccc(OC)c(NC(=O)CSC2=NCCS2)c1 | i | 2 | -14 | 2 | . | 0 | 3 | -15
CCCCOc1cccc(C2C(C(=O)c3cccs3)=C(O)C(=O)N2Cc2cccnc2)c1 (stereo not drawn) | i | . | 32 | -4 | 14 | -4 | 3 | .
Cc1cc(S(=O)(=O)c2ccc([N+](=O)[O-])cn2)ccc1Br | i | 98* | . | . | -90 | -4 | -14 | .

3 entries drawn at random from those above:
SMILES | Rce1 inh | CSC inhib | PABP polyA inh | eIF4H FP inh | Env fusion inh | MT1-MMP act inh | MT1-MMP act inh RFP | UUG fidelity | others
Cc1cc(S(=O)(=O)c2ccc([N+](=O)[O-])cn2)ccc1Br | i | 98* | . | . | -90 | -4 | -14 | .
O=C(O)C(=O)/C(=C\c1cccc(Cl)c1)c1ccc2ccccc2n1 | i | 5 | -4 | -7 | -48 | -8 | 2 | -3
COc1ccc(OC)c(NC(=O)CSC2=NCCS2)c1 | i | 2 | -14 | 2 | . | 0 | 3 | -15
